# High-throughput results deposited in PubChem by National Center for Advancing Translational Sciences (NCATS).
# Cruzain noTriton – blocks cruzain activity in detergent-free assay; 200,000 tested, 2.3% active; P25779; Potency, µM, for the others: max response, negative = inhibition, actives largely listed as inhibitors; purified cruzain, Z-FR-AMC fluorescence, no detergent; active = well fitted curve in the direction sought with a large enough effect; inconclusive = small, poorly fitted or top-dose-only effect, or another doubt; inactive = no such curve, though single readings can be large; an effect the other way counts as inactive or inconclusive;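 also: plate controls were enzyme without inhibitor for no effect and buffer without enzyme for full effect; nearly all actives have a fitted effect of over 40% in size; top concentration of the series not given in the record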
# Target sequence (P25779 123-467 limits assumed): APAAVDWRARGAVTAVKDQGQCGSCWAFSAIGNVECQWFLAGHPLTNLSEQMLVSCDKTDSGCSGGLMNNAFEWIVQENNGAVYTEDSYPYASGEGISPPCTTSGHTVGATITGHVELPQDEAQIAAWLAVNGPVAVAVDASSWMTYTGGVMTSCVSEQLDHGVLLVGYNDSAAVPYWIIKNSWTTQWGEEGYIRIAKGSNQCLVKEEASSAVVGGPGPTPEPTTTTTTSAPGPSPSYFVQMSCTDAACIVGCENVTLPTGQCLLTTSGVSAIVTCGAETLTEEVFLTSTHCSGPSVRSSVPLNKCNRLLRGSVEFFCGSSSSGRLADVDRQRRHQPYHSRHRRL
#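 Purified cruzain at 1.5 nM, pre-incubated 15 min with compound at room temperature in 100 mM sodium acetate pH 5.5, 5 mM DTT, 0.00005% Triton X-100. Reaction started with 2 uM Z-FR-AMC; AMC fluorescence increase over 60 s gives rate.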
# Cruzain Triton – inhibitors of Trypanosoma cruzi cruzain with detergent. P25779. purified cruzain, Z-FR-AMC fluorescence, 0.01% Triton. Potency, µM, inactives show max response, negative = inhibition, actives largely listed as inhibitors. 200,000 tested, 0.43% active; active = well fitted curve in the direction sought with a large enough effect; inconclusive = small, poorly fitted or top-dose-only effect, or another doubt; inactive = no such curve, though single readings can be large; an effect the other way counts as inactive or inconclusive;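 also: plate controls were neutral wells for no effect and buffer without enzyme for full effect; nearly all actives have a fitted effect of over 40% in size; top concentration of the series not given in the record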
#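 In this qHTS format, compounds are incubated with 1.5 nM cruzain for 15 min at room temperature before 2 uM Z-FR-AMC is added. Release of AMC is followed at 360/450 nm, and progress is taken as the 60 s fluorescence difference.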
# 2A StopGo – lowers the luciferase signal of an FMDV 2A StopGo reporter. human cells with a luciferase reporter of 2A StopGo recoding; control for the full effect not named in the record. Potency, µM (titrated, usually from 57.9 µM), for the others: at the top dose signal change, negative = less light. 410,000 tested, 1.2% active. AID 1159524; active = well fitted falling curve with a large enough effect; inconclusive = small, poorly fitted or top-dose-only effect; inactive = no such curve, though single readings can be large or run the other way; tested in HEK293T cells; also: % is scaled to controls: 0 for no effect and ±100 for the full control effect; nearly all actives have a fitted effect of over 45% in size; luciferase light after 4 h
# SARS PLP yeast – SARS-CoV PLP inhibition in yeast | S. cerevisiae expressing SARS-CoV PLpro, growth rescue; control for the full effect not named in the record | Potency, µM (top dose mostly 32.9 µM), without a hit: top-dose activity, positive = growth rescue | 330,000 tested, 0.19% active | AID 485353; also: 0% is about no effect; nearly all actives have a fitted effect of over 55% in size; growth read by luminescence after 48 h
# NS1 inh – influenza NS1 inhibition; S. cerevisiae slowed by influenza A NS1, growth recovery by OD600; Potency, µM (series often up to 46.1 µM), for the others: at the top dose activity, positive = more growth; 270,000 tested, 0.4% active; AID 2326; also: actives are rising curves; nearly all actives have a fitted effect of over 50% in size
#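 In this qHTS, NS1 from influenza A is expressed in budding yeast, where it slows growth. Cells are switched from glucose to 2% galactose medium (pH 6.0, -URA), treated with compound, and growth recovery is read at OD600.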
# Marburg entry inh – blocks Marburg virus binding to or entry into cells; Marburg virus pseudotyped entry inhibition, cell reporter; control for the full effect not named in the record; about a third of the inactives were read at about 46 µM; Potency, µM (series often up to 37.8 µM), for the others: at the top dose activity change, negative = inhibition, usual class: inhibitors; 300,000 tested, 1.8% active; active = well fitted inhibition curve with a large enough effect; inconclusive = small, poorly fitted or top-dose-only effect, or effect the other way; inactive = flat fitted curve, though single readings scatter; tested in HEK293 cells; about a fifth of its hits are not listed in these tables; also: % is scaled to controls: 0 for no effect and ±100 for the full control effect; luciferase read-out
# RE007 growth inh – less growth of the S. pombe RE007 Vpr strain. 360,000 tested, 0.21% active. Potency, µM (highest dose often 92.2 µM), for the others: top-dose activity change, negative = less growth. AID 651644. S. pombe RE007 Vpr strain, BacTiter-Glo ATP luminescence, 24 h; control for the full effect not named in the record; active = well fitted falling curve with a large enough effect; inconclusive = small, poorly fitted or top-dose-only effect; inactive = no such curve, though single readings can be large or run the other way;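 also: % is scaled to controls: 0 for no effect and ±100 for the full control effect; nearly all actives have a fitted effect of over 50% in size; the assay follows cell death caused by Vpr and the record does not say whether a fall means rescue or toxicity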
#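 Fission yeast RE007 carrying one integrated HIV-1 vpr copy, seeded at OD 0.01 in PMG+AL medium with 23 nL pinned compound. Grown 24 h at 30 degrees; viability read by BacTiter-Glo luminescence after 5 min.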
# Lassa entry inh – blocks Lassa virus binding to or entry into cells. Lassa virus pseudotype entry inhibition, cell reporter; control for the full effect not named in the record. AID 540256. 300,000 tested, 1.2% active. Potency, µM (series often up to 37.9 µM), inactives show at the highest dose activity change, negative = inhibition, hits mostly inhibitors; active means well fitted inhibition curve with a large enough effect; inconclusive means small, poorly fitted or top-dose-only effect, or effect the other way; inactive means flat fitted curve, though single readings scatter; tested in HEK293 cells; also: % is scaled to controls: 0 for no effect and ±100 for the full control effect; nearly all actives have a fitted effect of over 50% in size; luciferase read-out
# The depositor's hits bear a star; ? = inconclusive; . = not tested or not shown; & = joins results of further samples; [ ] = remark or other dose. Unless noted, calls follow the shape of the dose curve; as a rule, active means well fitted rising curve with a large enough effect; inconclusive means small, poorly fitted or top-dose-only effect; inactive means no such curve, though single readings can be large or run the other way. Potency is read from the fitted curve at half-maximal effect. Outcome played no part in choosing rows (roughly 4.8% active in at least one column).
molecule	RE007 growth inh	SARS PLP yeast	Cruzain noTriton	2A StopGo	NS1 inh	Marburg entry inh	Cruzain Triton	Lassa entry inh
O=C(C1=C[C@@H](c2csc3ccccc23)C[C@@H](OCCCCO)O1)N1CCN(Cc2ccc3c(c2)OCO3)CC1	2%	-1%	.	-25%	-11%	.	.	.
COc1ccc(C)cc1NC(=O)NCc1ccco1	-7%	-1%	.	5%	0%	23%[14.2 µM]	.	10%
C/C(=N\Nc1nc2ccccc2c(=O)n1O)c1ccco1	7%	8%	.	7%	5%	?	.	-1%[46.1 µM]
COc1ccc(C(=O)COC(=O)c2n[nH]c3ccccc23)c(OC)c1	8%	-1%	.	59%[activator]	.	2%	.	-7%
CCCCC(C)C(OC(=O)CC(CC(=O)O)C(=O)O)C(CC(C)CC(O)CCCCC(O)CC(O)C(C)N)OC(=O)CC(CC(=O)O)C(=O)O (stereo not given)	6%	2%	?	-17%	5%	9%	1.2%	4%
CCN(C1CCCCC1)S(=O)(=O)c1ccc(S(=O)(=O)N2CCN(CCC#N)CC2)cc1	-4%	-5%	?	-8%	-34%	0%	0.9%	.
CC(=O)NC(=S)Nc1ccc2oc(-c3cc(F)c(F)cc3Cl)nc2c1	10%	1%	.	72%[activator]	2%	-14%[46.1 µM]	.	1%
O=S(=O)(c1cccc(-c2n[nH]c(=S)n2C2CCCC2)c1)N1CCOCC1	1%	3%	.	?	.	-3%[46.1 µM]	.	-6%
C[n+]1ccccc1/C=C/c1c(F)cccc1F	-27%	-8%	.	-6%	7%	-11%[46.1 µM]	.	?
Cc1cc(C)n(-c2ccc(C(F)(F)F)cc2[N+](=O)[O-])n1	-4%	2%	.	-4%	.	20%[46.1 µM]	.	8%
COc1ccc(S(=O)(=O)N2CCOCC2)cc1NC(=O)COc1ncnc2ccccc12	32%	-3%	0%	-8%	18%	?	-1.6%	0%
COc1cc(C(=O)NN(CCC#N)C2=NS(=O)(=O)c3ccccc32)cc(OC)c1OC	2%	-1%	.	6%	1%	-8%[46.1 µM]	.	7%[46.1 µM]
Cc1ccc(NC(=O)c2nc[nH]c2C(=O)N[C@@H](CCCCNC(=O)OC(C)(C)C)C(=O)OC(C)(C)C)cc1	0%	-2%	.	?	-3%	.	.	.
CN(C)CCCN1C(=O)c2cccc3c([N+](=O)[O-])ccc(c23)C1=O	.	-22%	-25%	?	-25%	1.8µM*	-30%	?
CCCn1c(N)c(N(CCOC)C(=O)c2ccc(Cl)c([N+](=O)[O-])c2)c(=O)[nH]c1=O	7%	2%	.	-1%	-9%	11%[46.1 µM]	.	0%[46.1 µM]
COc1ccc(N(CC(=O)NC2CCCC2)C(=O)c2ccc(C)s2)c(OC)c1	-20%	1%	.	-13%	5%	-5%[46.1 µM]	.	14%
COCCNC(=S)c1ccc(OC)cc1	-11%	-2%	1%	13%	-50%	?	0.2%	?
CCC(C)NC(=O)[C@H](CSCc1ccccc1)N1Cc2ccccc2C1=O (stereo not given in full)	-5%	-3%	2%	-13%	-26%	-9%	-1.9%	-12%
COc1cc(/C=C(\C#N)C(=O)Nc2ccc(SC(F)F)cc2)cc(OC)c1OC	-11%	17%	24%	-15%	-5%	2%	-16%	12%
COC(=O)c1ccc(NC(=O)COc2ccc(N(C)S(=O)(=O)c3ccc(C)cc3)cc2)cc1	-15%	6%	.	?	.	9%	.	-18%
Cc1[nH]c2ccccc2c1N=Nc1cc(C(=O)O)cc(C(=O)O)c1	0%	1%	.	10%	-4%	2%[46.1 µM]	.	-6%[46.1 µM]
COc1ccccc1CN1CCNC(=O)C1CC(=O)NCc1cn(C)nc1C (stereo not given)	-3%	0%	.	5%	13%	.	.	.
CCCSc1nnc(NC(=O)Nc2ccccc2OC)s1	-20%	-1%	.	41%[activator]	0%	.	.	.
O=C(c1csc2c1CCCC2)N1CCN(c2ccc(F)cc2)CC1	-18%	-3%	-11%	-19%	-1%	?	-7.1%	?
COCCNC(=O)c1cc(C)ccc1C	6%	0%	.	-5%	-1%	-6%[46.1 µM]	.	-2%
COC(=O)c1cccc(OCC(O)Cn2ccnc2)c1 (stereo not given)	0%	-1%	-7%	-12%	6%	-4%	0.8%	-5%
O=C(NCCNc1ccccc1[N+](=O)[O-])c1ccccc1F	1%	3%	.	70%[activator]	-22%	.	.	.
Cc1ccc(C)c(N2CCN(C(=O)Cn3nc(Cc4cccnc4)c4ccccc4c3=O)CC2)c1	.	.	25%	?	.	?	-7.1%	?
CCCCOc1cccc(NC(=O)c2cccc(C(=O)Nc3cccc(OCCCC)c3)c2)c1	.	.	-5%	-15%	.	.	-0.3%	0%[46.1 µM]
Cc1cccc2sc(NC(=O)CSc3nc4ccccc4o3)nc12	-4%[3.69 µM]	0%	?	-12%	-4%	?	-0.2%	-2%
O=C(CNC1CCCCC1)N1CCC2(CC1)OCCO2	1%	5%	4%	6%	1%	10%	7.3%	-1%
COc1cc(NC(=O)c2cc3ccccc3o2)ccc1NC(=O)c1ccco1	9%	1%	.	-2%	-4%	8%[46.1 µM]	.	6%
Cc1ccc(CSc2nnc(-c3cnccn3)n2C)cc1	22%	0%	.	34%[activator]	-3%	13%[46.1 µM]	.	-19%
Cc1nnc(N(Cc2ccco2)C(=O)c2ccc(C#N)cc2)s1	4%	4%	-8%	-18%	4%	?	5.9%	2%
COc1ccc(C2=NN(C(=O)CSc3nc(=O)n4cccc(C)c4n3)C(c3ccc(C)cc3)C2)cc1 (stereo not given)	0%	.	.	-5%	.	?	.	?
COc1ccc(C(=O)N/N=C(/C)c2cccc(NC(=O)c3ccccc3F)c2)cc1	-9%	1%	.	4%	-6%	18%	.	-3%
CC(C)(C)C(=O)Cn1c(=O)n(CCCCCC(=O)NCc2ccccc2Cl)c(=O)c2sccc21	.	.	10%	-21%	.	?	-11%	-19%[46.1 µM]
Cc1ccc(C(=O)Nc2nc(COc3ccccc3)cs2)s1	4%	.	-4%	.	-41%	-20%	4.7%	-45%
Cc1ccc(N=c2c([N+](=O)[O-])nn(-c3ccc(Cl)cc3)n2O)cc1C	-9%	-3%	.	-12%	-5%	10%[46.1 µM]	.	16%
O=C(Cn1cc([N+](=O)[O-])cn1)NCc1ccco1	-2%	-1%	.	-4%	-3%	.	.	.

# Rewritten with each value named: entries from further up
> CC(=O)NC(=S)Nc1ccc2oc(-c3cc(F)c(F)cc3Cl)nc2c1
  RE007 growth inh: 10%
  SARS PLP yeast: 1%
  Cruzain noTriton: .
  2A StopGo: 72%[activator]
  NS1 inh: 2%
  Marburg entry inh: -14%[46.1 µM]
  Cruzain Triton: .
  Lassa entry inh: 1%
> O=S(=O)(c1cccc(-c2n[nH]c(=S)n2C2CCCC2)c1)N1CCOCC1
  RE007 growth inh: 1%
  SARS PLP yeast: 3%
  Cruzain noTriton: .
  2A StopGo: ?
  NS1 inh: .
  Marburg entry inh: -3%[46.1 µM]
  Cruzain Triton: .
  Lassa entry inh: -6%
> C[n+]1ccccc1/C=C/c1c(F)cccc1F
  RE007 growth inh: -27%
  SARS PLP yeast: -8%
  Cruzain noTriton: .
  2A StopGo: -6%
  NS1 inh: 7%
  Marburg entry inh: -11%[46.1 µM]
  Cruzain Triton: .
  Lassa entry inh: ?
> Cc1cc(C)n(-c2ccc(C(F)(F)F)cc2[N+](=O)[O-])n1
  RE007 growth inh: -4%
  SARS PLP yeast: 2%
  Cruzain noTriton: .
  2A StopGo: -4%
  NS1 inh: .
  Marburg entry inh: 20%[46.1 µM]
  Cruzain Triton: .
  Lassa entry inh: 8%

# One compound at a time, as listed above:
# Shown for CCCSc1nnc(NC(=O)Nc2ccccc2OC)s1 = RE007 growth inh: -20%; SARS PLP yeast: -1%; Cruzain noTriton: .; 2A StopGo: 41%[activator]; NS1 inh: 0%; Marburg entry inh: .; Cruzain Triton: .; Lassa entry inh: .
# Shown for O=C(Cn1cc([N+](=O)[O-])cn1)NCc1ccco1 = RE007 growth inh: -2%; SARS PLP yeast: -1%; Cruzain noTriton: .; 2A StopGo: -4%; NS1 inh: -3%; Marburg entry inh: .; Cruzain Triton: .; Lassa entry inh: .

# Later entries.
molecule	RE007 growth inh	SARS PLP yeast	Cruzain noTriton	2A StopGo	NS1 inh	Marburg entry inh	Cruzain Triton	Lassa entry inh
Cc1cc(C(=O)COc2ccccc2Cl)c(C)n1-c1ccc2c(c1)OCO2	2%	-13%	?	29%	20%	16µM*	-2.4%	4.1µM*
N#Cc1ccc(-c2csc(NNC(=O)c3ccc(Br)cc3)n2)cc1	106%	-8%	7.9µM*	-23%	29%	?	-1.8%	-21%
O=C(COC(=O)/C=C/c1ccc(C(F)(F)F)cc1)NC(=O)NCc1ccco1	13%	0%	.	?	.	15%	.	-1%
CCN1C(=NCCCCO)N[C@@H](c2cccc(F)c2)C(C(=O)OC)=C1C	-5%	6%&0%	.	-11%	8%&4%	.	.	.
c1c2c(cc3sc(N4CCCCC4)nc13)OCCO2	?	-44%	-6%	?	-8%	0.56µM*	-7.6%	1.6µM*
O=C(O)/C=C/C(=O)Nc1ccc(Oc2ccccc2)cc1	-8%	-5%	.	20%	-3%	1%[46.1 µM]	.	9%
COC(=O)c1ccc(-n2c(CCC(=O)O)ccc2-c2ccccc2)cc1	34%	-4%	.	?	2%	.	.	.
COC(=O)CSc1nc2cc(OC)ccc2cc1C#N	-13%	-1%	-10%	39%[activator]	-45%	7%	-3.1%	-4%
CCN(CC)c1ccc(C(=O)NNC(=O)CCl)cc1	9%	8%	.	4%	.	-21%[46.1 µM]	.	?
CC(C)(C)NC(=O)c1c(F)c(F)c(F)c(F)c1F	0%	-14%	-12%	-7%	-15%	?	-6.5%	0%
CCC(=O)N1CCc2cc(Br)cc(S(=O)(=O)N(CC)Cc3ccccc3)c21	.	.	-2%	-7%	.	4%[46.1 µM]	-1.6%	15%[46.1 µM]
Cc1ccc(S(=O)(=O)NN2C(=O)c3ccccc3NC2c2ccccc2F)cc1 (stereo not given)	10%	2%	.	-6%	7%	?	.	?
